# Compound activity (PubChem)
# total CFTR – compounds raising F508del-CFTR protein level – cell-based, HeLa F508del-CFTR, immunofluorescence, viability, primary screen (AID 1224863); HeLa F508del-CFTR, immunofluorescence total CFTR, 24 h; by the record results were divided by relative cell number; some inactives read as strong as hits; 0.1% of 10,000 active; calls, or highest fold increase where a dose series was run; in the data nearly all actives have a first-pass fold increase above 1.5; a few of its hits are not listed in these tables;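 note: total CFTR protein by anti-CFTR immunofluorescence in fixed cells; first pass at 25 µM or 10 µg/mL by library and series up to twice that; 1 = untreated cells; first-pass hits also needed half or more of the cells alive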
# total CFTR fold 25 µM – recorded beside total CFTR, whose call it bears; fold increase; measured here: primary screen single dose 25 uM; library dosed in µM
# total CFTR fold 10 ug/mL – second read-out of total CFTR, no call of its own (marks repeat the call); fold increase; measured here: primary screen 10 ug/mL
# total CFTR viability 25 µM – further read-out of total CFTR, marked with its call; viability, %; measured here: primary viability 25 uM; library dosed in µM;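 0% = killed and 100% = untreated cells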
# total CFTR viability 10 ug/mL – further read-out of total CFTR, marked with its call; viability, %; measured here: primary viability 10 ug/mL;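 0% = killed and 100% = untreated cells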
# * = called active by the depositor; i = inactive; / = not tested or not shown; & = joins results of further samples.
SMILES,total CFTR,total CFTR fold 10 ug/mL,total CFTR viability 10 ug/mL,others
CN(CCCOc1ccccc1)Cn1[nH]c(C(C)(C)C)nc1=S,i,0.93,93,
CC(C)(C)OC(=O)N1CCN(C(=O)c2cc(I)ccc2O)CC1,i,1.2,100,
c1csc(-c2noc(Cn3ccnc3)n2)c1,i,0.97,91,
CCCCN(C(=O)CC12CC3CC(CC(Br)(C3)C1)C2)c1c(N)n(CCC)c(=O)[nH]c1=O,i,1,91,
CCCCc1nc(Cl)c(CO)n1Cc1ccc(-c2ccccc2-c2nn[nH]n2)cc1,i,/,/,total CFTR fold 25 µM=0.99;total CFTR viability 25 µM=92
Cc1cnc(C(=O)O)c[n+]1[O-],i,/,/,total CFTR fold 25 µM=1&1.1&1.1;total CFTR viability 25 µM=110&90&103
Cc1occc1-c1nnc2n1N=C(c1ccccc1)C(CC(=O)O)S2 (stereo unspecified),i,0.99,96,
CN(Cc1cc2c(cc1O)OCO2)Cc1ccc(F)cc1F,i,1.1,95,
CCONC(=O)c1nn(-c2ccccc2)c(C)cc1=O,i,1,104,
Clc1ccc2c(c1)C(N1CCNCC1)=Nc1ccccc1O2,i,/,/,total CFTR fold 25 µM=0.95&1;total CFTR viability 25 µM=93&101
CS(=O)(=O)NCC1CCCN(c2ncnc3ccccc23)C1 (stereo unspecified),i,1.1,82,
C=C(C)CN(CC)CC(O)COc1ccccc1 (stereo unspecified),i,1.1,116,
CC(C)CCn1c(SCCCO)nc2c1c(=O)[nH]c(=O)n2C,i,1.1,87,
CN1CCC2(CC1)NC(=O)N(CN1CCCC1c1cccs1)C2=O (stereo unspecified),i,1.1,93,
CC[C@H](c1ccc(O)cc1)[C@@H](CC)c1ccc(O)cc1,i,/,/,total CFTR fold 25 µM=0.96;total CFTR viability 25 µM=85
CCn1cnn(CN2CCc3cc(OC)c(OC)cc3C2)c1=S,i,1,102,
CCC(NCC(O)COc1ccccc1C(C)C)C12CC3CC(CC(C3)C1)C2 (stereo unspecified),i,0.67,26,
O=C1C(=O)N(CN2CCN(c3ccccc3)CC2)c2cc3c(cc21)OCCO3,i,0.98,102,
O=C(OCc1nnnn1-c1ccccc1)C12CC3CC(CC(O)(C3)C1)C2,i,0.84,103,
CC(=O)OCC(=O)[C@@]12OC(C)(C)O[C@@H]1C[C@H]1[C@@H]3C[C@H](F)C4=CC(=O)C=C[C@]4(C)[C@@]3(F)[C@@H](O)C[C@@]12C,i,/,/,total CFTR fold 25 µM=1.1;total CFTR viability 25 µM=77
CC(c1nc(C(C)(C)C)no1)N1CCN(C(C)c2nc(C(C)(C)C)no2)CC1 (stereo unspecified),i,0.92,74,
CCCN1C(=O)C(=O)N(Cc2ccc(F)cc2Cl)C1=O,i,1.1,93,
Cc1nc(CN2CCN(S(=O)(=O)c3cc(Br)ccc3Br)CC2)cs1,i,0.97,98,
C=CCN(Cn1nc(C)n(CC=C)c1=S)C1CCc2ccccc21 (stereo unspecified),i,1.1,87,
CC1=C(CC(=O)O)c2cc(F)ccc2/C1=C/c1ccc(S(C)=O)cc1 (stereo unspecified),i,/,/,total CFTR fold 25 µM=0.98;total CFTR viability 25 µM=79

# The last four records of the section before lead into the next:
SMILES,total CFTR,total CFTR fold 10 ug/mL,total CFTR viability 10 ug/mL,others
CCCN1C(=O)C(=O)N(Cc2ccc(F)cc2Cl)C1=O,i,1.1,93,
Cc1nc(CN2CCN(S(=O)(=O)c3cc(Br)ccc3Br)CC2)cs1,i,0.97,98,
C=CCN(Cn1nc(C)n(CC=C)c1=S)C1CCc2ccccc21 (stereo unspecified),i,1.1,87,
CC1=C(CC(=O)O)c2cc(F)ccc2/C1=C/c1ccc(S(C)=O)cc1 (stereo unspecified),i,/,/,total CFTR fold 25 µM=0.98;total CFTR viability 25 µM=79
COC(=O)C(C)(C)NC(=O)c1ccc(I)c(Br)c1,i,0.92,73,
O=C1COc2ccc(C(=O)COC(=O)c3ccc4ncsc4c3)cc2N1,i,0.9,90,
O=C(Nc1ccc2c(c1)OCO2)NC1CCSc2ccc(Cl)cc21 (stereo unspecified),i,1,85,
CCCN1C(=O)C(=O)N(Cc2cccc3ccccc23)C1=O,i,1,98,
COC(=O)c1occc1/C=C(/C#N)c1nc(C)cs1,i,1.1,103,
COc1cc2c(cc1OC)C(c1ccccc1)N(S(=O)(=O)Cc1ccccc1)CC2 (stereo unspecified),i,0.85,98,
CC1(N)CCCCC1,i,1.1,86,
CC1(C(=O)Nc2cc3c(cc2Cl)NC(=O)CO3)CC1(Cl)Cl (stereo unspecified),i,1,99,
O=C(OCCOc1ccc(Cl)cc1Cl)c1ccc(Cl)cc1O,i,1,114,
C[C@H]1C[C@@H]2[C@H]([C@@H](O)C[C@@]3(C)[C@H]2CC[C@]3(O)C(=O)CO)[C@@]2(C)C=CC(=O)C=C12,i,/,/,total CFTR fold 25 µM=1.1&1.1;total CFTR viability 25 µM=92&80
CC1(c2ccc3c(c2)OCCO3)NC(=O)N(CCn2c(=O)oc3ccccc32)C1=O (stereo unspecified),i,1.2,102,
O=C(COc1ccc2oc3c(c2c1)CCCC3)NC1=NCCS1,i,1.1,93,
Cc1ccc(C)c(OCC(O)CN2C(=O)CC3(CCCCC3)C2=O)c1C (stereo unspecified),i,0.95,79,
FC(F)(F)c1ccc(N2CCN(c3nc(N4CCCC4)nc(N4CCCC4)n3)CC2)nc1,i,0.95,89,
C=CCn1c(SCCS(=O)(=O)c2ccc(Cl)cc2)nnc1C1COc2ccccc2O1 (stereo unspecified),i,0.93,103,
C=C(C)CN(CC)Cn1[nH]c(C(C)(C)C)nc1=S,i,1,94,
CC(C)CNS(=O)(=O)c1ccc2c(c1)CCC2,i,1.1,99,
Clc1ccc(-c2nnn(CCc3ccncc3)n2)cc1,i,0.86,69,
CC(C)n1ncc2cc(NS(=O)(=O)c3cccc(S(N)(=O)=O)c3)cnc21,i,0.96,86,
CCCCCCCCCCC[C@@H](C[C@@H]1OC(=O)[C@H]1CCCCCC)OC(=O)[C@H](CC(C)C)NC=O,i,/,/,total CFTR fold 25 µM=0.87;total CFTR viability 25 µM=97
Cc1c(OCC(F)(F)F)ccnc1C[S@@](=O)c1nc2ccccc2[nH]1,i,/,/,total CFTR fold 25 µM=1;total CFTR viability 25 µM=94
O=S(=O)(Nc1ccc(Cl)cc1)c1cc(F)ccc1F,i,0.95,111,
CCN(CC)C(=O)c1cccc(C)c1,i,/,/,total CFTR fold 25 µM=0.94;total CFTR viability 25 µM=107
COC(=O)C1(NC(=O)c2ccc(Br)o2)CCCCC1,i,1.1,78,
CCC(CC)N(C)S(=O)(=O)c1ccc(C)cc1Br,i,0.94,85,

# Three entries from above, arranged by number of heavy atoms, falling.
SMILES,total CFTR,total CFTR fold 10 ug/mL,total CFTR viability 10 ug/mL,others
O=C1COc2ccc(C(=O)COC(=O)c3ccc4ncsc4c3)cc2N1,i,0.9,90,
CC1=C(CC(=O)O)c2cc(F)ccc2/C1=C/c1ccc(S(C)=O)cc1 (stereo unspecified),i,/,/,total CFTR fold 25 µM=0.98;total CFTR viability 25 µM=79
COC(=O)C1(NC(=O)c2ccc(Br)o2)CCCCC1,i,1.1,78,

# Later entries.
SMILES,total CFTR,total CFTR fold 10 ug/mL,total CFTR viability 10 ug/mL,others
Cc1ccc(C2=N/C(=C/c3ccco3)C(=O)O2)s1,i,1.2,102,
CCc1cccc(OCCSc2nnc(C3COc4ccccc4O3)n2-c2ccccc2)c1 (stereo unspecified),i,1,101,
COCCc1ccc(OCC(O)CNC(C)C)cc1 (stereo unspecified),i,/,/,total CFTR fold 25 µM=1.1&1;total CFTR viability 25 µM=99&93
Nc1ccc2c(c1)N(CCO)CC2,i,1,79,
CNCc1ccc(OCc2ccc(Cl)cc2)c(OC)c1,i,1.1,107,
COc1cc([N+](=O)[O-])ccc1S(=O)(=O)N(CC1CCOC1)C1CC1 (stereo unspecified),i,0.88,78,
Cc1ccsc1C(=O)OCC(=O)NC(=O)c1ccco1,i,1.1,112,
CC(c1ccc(-n2cnc3ccccc32)cc1)N(C)S(=O)(=O)c1cn(C)c(=O)n(C)c1=O (stereo unspecified),i,0.89,93,
Cc1ccc(CN(C)S(=O)(=O)c2cn(C)c(=O)n(C)c2=O)c(C)c1,i,1.1,90,
CS(=O)(=O)Nc1ccc([N+](=O)[O-])cc1Oc1ccccc1,i,/,/,total CFTR fold 25 µM=0.98&0.85;total CFTR viability 25 µM=94&99
FC(F)n1ccnc1CSc1ncnc2c1cnn2-c1ccccc1,i,1.1,87,
O=C(NCCSC1CCCC1)c1ccsc1,i,0.99,96,
CC(Sc1nnc2ccccn12)c1ccc(F)cc1 (stereo unspecified),i,1,87,
Cc1ccnc2c1NC(=O)c1cccnc1N2C1CC1,i,/,/,total CFTR fold 25 µM=0.77&0.93;total CFTR viability 25 µM=65&121
COc1ccc(N=C2NN=C(c3cc(C)n(Cc4ccco4)c3C)CS2)cc1,i,1.1,114,
CN(Cc1ccsc1)S(=O)(=O)c1ccc(S(C)(=O)=O)cc1,i,1.4,93,
CCn1c(=S)[nH]c2ncccc2c1=O,i,1,86,
CC(Sc1nnc2n1CCCCC2)C(=O)NC1CCCC1 (stereo unspecified),i,1.1,83,
NC(CO)(CO)CO,i,/,/,total CFTR fold 25 µM=1.1;total CFTR viability 25 µM=75
CN(C)c1nc(N)nc(CN2CCN(c3ccc(F)cc3)CC2)n1,i,1.1,90,
Clc1ccccc1N1CCN(c2cc(-c3ccccc3)c3cc4c(cc3n2)OCCO4)CC1,i,1.1,103,
CC(C)NC(=O)N1CCOC(C)(C)C1,i,1,100,
CSc1ccc2c(c1)C(N1CCN(C)CC1)Cc1ccccc1S2 (stereo unspecified),i,/,/,total CFTR fold 25 µM=0.66;total CFTR viability 25 µM=47
CC1CCc2c(sc3nc(-c4cccnc4)nc(N4CCNC(=O)CC4)c23)C1 (stereo unspecified),i,0.94,84,
CCCCC(CC)CNS(=O)(=O)c1cc2c(cc1Br)NC(=O)CO2 (stereo unspecified),i,0.91,93,
SMILES,total CFTR,total CFTR fold 10 ug/mL,total CFTR viability 10 ug/mL,others
c1ccc(C2Sc3ccccc3NC3=C2CCc2ccccc23)cc1 (stereo unspecified),i,1.2,106,
O=c1[nH]ncc(NCC2CCCC2)c1Cl,i,1,100,
CC(C)(C)C(=O)N1CCCC(c2nc3ccccc3o2)C1 (stereo unspecified),i,0.96,98,
FC(F)(F)c1ccc2c(c1)CCCN2Cn1nc2ccccn2c1=S,i,1.1,94,
Clc1cc2c(c(CSc3nnnn3Cc3ccco3)c1)OCOC2,i,1,100,
Cn1nnnc1SCC(=O)N1CC(=O)NC(=O)C12CCCCC2,i,1.1,97,
OC(CN1CCN(Cc2nnc3n2CCCCC3)CC1)Cn1cccn1 (stereo unspecified),i,0.99,93,
Cc1oc(-n2cccc2)c(C#N)c1C(=O)OC1CCCCC1,i,1.1,102,
O=C1CCC(C(=O)O)CN1 (stereo unspecified),i,1.2,98,
O=c1c(C(F)(F)F)c2c(nn1CN1CCc3sccc3C1c1cccs1)CCC2 (stereo unspecified),i,1,109,
O=C(CNC(=O)c1ccco1)NC1=NCCS1,i,1.1,80,
CN1/C(=C/C(=O)COC(=O)c2ccc3c(c2)OCCO3)C(C)(C)c2ccccc21,i,1,90,
Cn1c(=O)c2ccccc2n2c(COc3cc(Cl)c(Cl)cc3Cl)nnc12,i,0.92,90,
CCCCCCOC(=O)/N=C(/N)c1ccc(NCc2nc3cc(C(=O)N(CCC(=O)OCC)c4ccccn4)ccc3n2C)cc1,i,/,/,total CFTR fold 25 µM=1;total CFTR viability 25 µM=77
COc1cc(/C=C/C(=O)N2CCCCCC2)cc(OC)c1OC,i,/,/,total CFTR fold 25 µM=1.1;total CFTR viability 25 µM=99
O=C(Nc1ccc(-n2cnnn2)cc1)C1(c2ccccc2)CCC1,i,0.98,92,
CC(C)CNC(=O)CN1C(=O)NC2(CC(C)CC(C)(C)C2)C1=O (stereo unspecified),i,1.1,94,
O=S(=O)(CCn1cnc2ccccc21)N1CCCCCC1,i,0.85,88,
C=CCn1c(C)nnc1SCc1nnc(-c2ccc([N+](=O)[O-])cc2)o1,i,1.1,97,
NS(=O)(=O)c1cccc(S(=O)(=O)Nc2ccccc2SC(F)(F)F)c1,i,1.1,100,

# Entries shown so far that have bromine:
SMILES,total CFTR,total CFTR fold 10 ug/mL,total CFTR viability 10 ug/mL,others
CCCCN(C(=O)CC12CC3CC(CC(Br)(C3)C1)C2)c1c(N)n(CCC)c(=O)[nH]c1=O,i,1,91,
Cc1nc(CN2CCN(S(=O)(=O)c3cc(Br)ccc3Br)CC2)cs1,i,0.97,98,
COC(=O)C(C)(C)NC(=O)c1ccc(I)c(Br)c1,i,0.92,73,
COC(=O)C1(NC(=O)c2ccc(Br)o2)CCCCC1,i,1.1,78,
CCC(CC)N(C)S(=O)(=O)c1ccc(C)cc1Br,i,0.94,85,
CCCCC(CC)CNS(=O)(=O)c1cc2c(cc1Br)NC(=O)CO2 (stereo unspecified),i,0.91,93,

# Filtered by structure: those above containing a cyano group
SMILES,total CFTR,total CFTR fold 10 ug/mL,total CFTR viability 10 ug/mL,others
COC(=O)c1occc1/C=C(/C#N)c1nc(C)cs1,i,1.1,103,
Cc1oc(-n2cccc2)c(C#N)c1C(=O)OC1CCCCC1,i,1.1,102,

# An excerpt; count on the stated rates, not on these rows.
